Screening results: PubChem BioAssay, several laboratories
CSC inhib: cancer stem cell inhibition; cancer stem cell-like cells viability, luminescence; 1.1% of 300,000 active; inhibition, % at 7.5 µM;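 active means mean at 75% or more and at least half the replicates too; tested in HMLE shEcad cells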;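 further: 0% = median of negative and 100% = median of positive control wells; the first replicate is given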
UUG fidelity: alters start codon recognition fidelity in yeast | S. cerevisiae UUG-firefly luciferase reporter, luminescence/redox ratio | activity score, % at 18.7 µM | 0.13% of 350,000 active;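 active means replicate mean at a twofold rise or more, about +100% in these data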;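 further: firefly luciferase made from a UUG start codon reports start codon fidelity; reporter light over untreated wells divided by growth signal over untreated wells; some hits fall short of that in this replicate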
MT1-MMP act inh: inhibitors of human MT1-MMP activation; P50281; HT1080 RFP-PRO-GFP cells, GFP/RFP ratio fluorescence, overnight; percent of plate control window, DMSO zero; GFP/RFP ratio change, % at 20 µM; 0.061% of 360,000 active; AID 651647;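 active means GFP/RFP ratio change of at least 30% with cell ATP level not reduced by more than half and red fluorescence within 50% of control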; further: strong numbers were not always called active
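Assay system: HT1080 RFP-PRO-GFP cells. Benchmarks: DMSO vehicle wells and RFP-L50D-GFP reporter cell wells. Times: overnight cell settling, then overnight compound exposure, 37 °C, 5% CO2. Compound: 20 µM single dose, 1% DMSO. Read-out basis: GFP/RFP fluorescence ratio.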
eIF4H FP inh: inhibitors of RNA binding by human eIF4H. eIF4H fluorescence polarization binding assay. inhibition, % at 35 µM. 0.94% of 290,000 active;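 active means 50% or more with normal probe brightness, or confirmed in later tests; about a fifth of its hits are not listed in these tables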;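 further: calls also rest on retests at 20 µM and on dose response follow-up; 0% = protein and probe with vehicle and 100% = probe without protein; strong numbers were not always called active; many hits fall short of the cut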
Env fusion inh: blocks HIV Env-driven cell-cell fusion; inhibition, % at 12.3 µM; AID 651610; 1.1% of 360,000 active; HeLa-JRFL Env/CEM21 cell fusion, luciferase;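 active means mean replicate inhibition score of at least 50 and every replicate individually at or above 50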;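 further: 0% = plate neutral controls and 100% = maraviroc near 300 nM; one replicate is shown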
Rce1 inhib: inhibitors of yeast Ras-converting enzyme. Q03530. yeast membranes, quenched prenylated peptide cleavage fluorescence. calls only. 0.27% of 290,000 active. AID 2563;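 active means fall in fluorescence gain of 50% or more versus controls, with final raw signal at or below 3038400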;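 further: plate controls were neutral control wells for no effect and wells lacking membranes for full effect; tested at 10 µM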
Target sequence (Q03530 whole entry, looked up): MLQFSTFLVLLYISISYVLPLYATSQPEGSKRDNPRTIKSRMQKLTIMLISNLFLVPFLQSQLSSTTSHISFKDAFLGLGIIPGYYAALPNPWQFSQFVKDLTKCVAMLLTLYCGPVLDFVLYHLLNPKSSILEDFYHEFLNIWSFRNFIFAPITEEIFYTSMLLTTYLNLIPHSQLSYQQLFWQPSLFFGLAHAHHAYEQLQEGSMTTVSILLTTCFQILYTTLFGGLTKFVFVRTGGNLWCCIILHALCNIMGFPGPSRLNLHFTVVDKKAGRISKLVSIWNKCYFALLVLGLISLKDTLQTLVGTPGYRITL
PABP polyA inh: PABP-poly(A) binding inhibition | PABP-poly(A) RNA binding, fluorescence polarization | inhibition, % at 35 µM | 1% of 290,000 active | AID 2014;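 active means 50% or more with normal probe brightness, or confirmed in later tests; about a fifth of its hits are not listed in these tables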;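 further: calls also rest on retests at 20 µM and on dose response follow-up; controls were probe without protein and protein plus probe with vehicle; some compounds called inactive have numbers as strong as hits; many hits fall short of the cut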
eIF4H FP inh retest: also measured in eIF4H FP inh; calls as there; inhibition, %; compound at 20 µM; confirmation average;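 mean of two retest wells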
PABP polyA inh retest: further read-out of PABP polyA inh, marked with its call; inhibition, %; compound at 20 µM; confirmation repeats;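 mean of two retest wells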
MT1-MMP act inh RFP: second read-out of MT1-MMP act inh, no call of its own (marks repeat the call); RFP signal change, %; measured here: RFP expression control read;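 0 = vehicle wells; hits needed this value within 50% of zero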
Active calls of the source: *; i = inactive; x = no result given; + = active, no number. These rows are one share of the data, so the mix of outcomes need not match the whole.

SMILES	CSC inhib	UUG fidelity	MT1-MMP act inh	MT1-MMP act inh RFP	eIF4H FP inh	Env fusion inh	Rce1 inhib	PABP polyA inh	others
Cc1nc2ccccc2cc1C(=O)NCc1ccco1	-3	-11	4	-2	16	x	i	14
COc1ccc(C(=O)COC(=O)CN2C(=O)c3ccccc3C2=O)c(OC)c1	-5	-21	2	0	-3	-19	i	12
CCN(CC)Cc1cc(CC(C(N)=O)C(N)=O)ccc1OC	-11	-17	6	5	-6	30	i	-9
COc1ccc(CNC(=O)CSc2nc(C)cs2)cc1	-6	x	0	5	-4	16	i	1
CCOC(=O)c1ccc(NC(=O)CCS(=O)(=O)Cc2ccccc2)cc1	2	-11	0	3	-11	-4	i	2
O=c1[nH]nc(SCc2ccccc2)n1C1CC2C=CC1C2 (centres undefined)	32	x	2	-2	4	7	i	-1
Cc1cc(OCc2nn[nH]n2)c2c(C)c(Cc3ccccc3)c(=O)oc2c1	-2	-6	2	1	0	x	i	19
CCCN(Cc1cc(=O)[nH]c2ccccc12)C(=O)CC	-13	x	2	1	-2	-4	i	-4
Cc1ccc(OCCC(=O)Nc2ccc(C)c(F)c2)cc1	-5	-14	-1	0	-12	-7	i	-12
Cc1ccc(CNC(=O)c2sc3nc4c(c(C(F)(F)F)c3c2N)CCC4)cc1	25	-14	-7	-2	2	-19	x	8
N=C1C(c2ccccc2)=C(O)CN1c1cccc2ccccc12	-14	x	0	5	-4	10	i	-6
CCSc1nnc(-c2ccncc2)n1Cc1ccccc1	-3	x	0	7	-7	-62	i	4
C/C(=N/O)c1ccc(Oc2cnccn2)cc1	9	x	0	1	1	-5	i	-7
Cc1cc(C(=O)N/N=C/c2c[nH]c3ccccc23)c(C)o1	7	x	6	0	-6	8	i	0
CC(C)Cn1c(N)c(C(=O)CSc2ncccn2)c(=O)n(C)c1=O	-8	9	-2	-6	x	-10	i	x
COc1cccc(C(=O)Nc2sc(C(C)C)cc2C(N)=O)c1OC	4	x	3	-6	-1	-1	i	-4
NS(=O)(=O)c1ccc(Cl)c(C(=O)Nc2ccccc2[N+](=O)[O-])c1	15	x	0	2	5	-6	i	-9
S=c1[nH]nc(COc2ccc3ccccc3c2)o1	-2	x	-4	4	6	x	i	0
O=C1CN(c2nc3nonc3nc2N2CCCCC2)CCN1	-2	x	4	3	-1	0	i	2
COc1ccc(S(=O)(=O)N2CCOCC2)cc1C(=O)Nc1ccc2c(c1)OCO2	-9	-13	-1	5	-4	5	i	-8
COc1ccc(Cn2c(=O)c3c(nc(NCCO)n3C)n(C)c2=O)cc1	5	1	7	0	0	x	i	5
O=c1c2ccccc2nc(CSc2nnnn2-c2ccccc2)n1-c1ccccc1	10	6	-2	1	-4	-31	i	-4
CCCn1c(/N=C/c2ccc3c(c2)OCO3)nc2ccccc21	-13	-18	5	5	-1	47	i	-2
CN(C)c1ccc(-c2cc(NC=O)c3ncc(-c4ccc(F)c(Cl)c4)n3c2)cc1	x	-5	-104	10	x	-9	x	x
O=C1OC(Nc2ccc(Br)cc2F)c2ccccc21 (centres undefined)	-4	-14	-4	-3	0	-5	i	-2
CCOc1ccc(C(=O)NCC(=O)NCC(c2cccs2)N2CCOCC2)cc1 (centres undefined)	-7	-1	-2	2	x	-7	i	x
CCOC(=O)CNC(=O)c1sc(NC(=O)c2cccc(F)c2)nc1C	9	-16	-8	5	-1	x	i	11
C/C(=N\NC(=O)c1ccccc1[N+](=O)[O-])c1ccc(Br)s1	-1	1	5	5	-7	-1	i	10
Nn1c(SC/C=C/c2ccccc2)nnc1-c1ccccn1	-7	-26	-6	3	6	-11	i	0
COc1cccc(C=O)c1OC(=O)N1CCOCC1	x	-11	2	-2	-1	-4	i	-2
O=C(Cc1ccccc1Cl)NC1(O)C(=O)c2ccccc2C1=O	-6	25	-3	0	-9	6	i	8
CCOc1ccccc1N1CCN(CC(=O)Nc2nccs2)CC1	x	-15	-2	2	x	-14	x	x
NC(=O)C1CCN(C(=O)c2cnn(-c3ccccc3)c2NC(=O)c2cccc(F)c2)CC1	-6	-2	-2	1	-3	3	i	14
C/C=C(\C)CN1CCN(c2cc(C)ccc2C)CC1	5	3	-1	3	-9	-29	i	17
CCOC(=O)N1CCN(C(=O)/C(=C/c2ccc(OC)cc2)NC(=O)c2ccccc2)CC1	-10	-7	2	0	-4	-48	x	3
CC(=O)Nc1ccc(S(=O)(=O)N2CCCC2C(=O)Nc2ccc3c(c2)OCCO3)cc1 (centres undefined)	11	-3	3	1	3	-1	i	0
N#C/C(=C\c1ccc(Oc2ccc(C(F)(F)F)cc2[N+](=O)[O-])cc1)c1nc2ccccc2[nH]1	19	x	-8	-10	-5	x	i	-14
COc1cc(OC)cc(OC(=O)c2ccc3c(=O)n4c(nc3c2)CCC4)c1	-12	7	3	0	x	-1	i	x
O=C(N/C(=C\c1ccc(Br)cc1)C(=O)N1CCOCC1)c1ccc([N+](=O)[O-])cc1	-6	1	2	4	3	7	i	-2
Cn1c(=O)c2c(nc(NCc3ccc4c(c3)OCO4)n2Cc2ccccc2)n(C)c1=O	-6	-6	3	-8	-2	x	i	-8
CCOC(=O)C1CCCN(CC(=O)Nc2c(F)c(F)c(F)c(F)c2F)C1 (centres undefined)	-3	-18	-10	-8	7	x	i	-4
Cc1cccc(COc2ccccc2C(=O)OCC(=O)N(C)c2c(N)n(Cc3ccccc3)c(=O)[nH]c2=O)c1	-8	-5	-13	-8	8	x	i	8
O=C(NC1CC1)C(=O)c1c[nH]c2ccccc12	-4	-9	-2	0	12	-12	i	6
Cc1ccsc1/C=N/NC(=O)c1nnn(-c2nonc2N)c1-c1ccccc1	x	-9	-7	-4	-3	4	i	4
O=C(Nc1ncc(S(=O)(=O)c2ccc([N+](=O)[O-])cc2)s1)c1cccnc1	4	-12	2	-5	1	2	i	0
Cc1ccc(S(=O)(=O)CCSc2nccn2C)cc1	11	x	1	3	-4	-8	x	7
Cc1ccc([C@@H]2CC=C(C(=O)O)[C@H](c3cccc(F)c3)N2S(=O)(=O)c2ccccc2C)cc1	x	-8	2	1	x	50	x	x
Cc1onc(-c2ccccc2)c1C(=O)c1c[nH]c(C(=O)NCCCN2CCOCC2)c1	-18	x	8	-12	-4	1	i	-10
Cc1ccc(NC(=O)Cc2ncon2)cc1Cl	-1	x	4	-1	-1	2	i	16
COc1ccc(C2CC(C(F)(F)F)n3ncc(C(=O)NCC4CCCO4)c3N2)cc1OC (centres undefined)	-7	7	0	5	-1	x	i	0
Cc1ccccc1NC(=O)C1CCC(=O)N1 (centres undefined)	-5	-22	1	7	-7	-1	i	6
Cc1nn(Cc2ccccc2)c(C)c1/C=N/NC(=O)c1ccccc1O	-11	x	3	1	0	-5	i	2
O=C(COC(=O)c1ccco1)NCc1ccc(Cl)cc1Cl	-9	-19	1	4	x	x	x	x
CCCCn1c(CCCNC(=O)CC)nc2ccccc21	-2	8	-1	0	-4	-22	i	38
COC(=O)c1ccc(CN2CCCC(CNC(=O)Cc3ccc(OC)cc3)C2)cc1 (centres undefined)	-2	-11	1	2	0	5	i	4
CC(=O)CCc1c(C)nc2ccc(C)cc2c1Cl	-1	x	-1	-5	-8	-16	x	-9
Cc1cc(C)c(NC(=S)NC(=O)c2c(Cl)c(C)nn2C)c([N+](=O)[O-])c1	x	-13	6	1	-3	x	i	-3
Cc1ccc(NC(=O)CN2CCC(NC(=O)c3ccccc3F)CC2)cc1C	4	-3	0	2	5	8	x	9
COc1ccc(CC(=O)Nc2sc3c(c2C#N)CC(C)(C)NC3(C)C)cc1OC	-7	-18	-2	-6	-10	18	i	-9
COc1cc(OC)cc(C(=O)NCC(=O)OC(C)C(=O)NC(C)C2CC3CCC2C3)c1 (centres undefined)	x	9	6	3	x	2	x	x
Additional structures follow.
SMILES	CSC inhib	UUG fidelity	MT1-MMP act inh	MT1-MMP act inh RFP	eIF4H FP inh	Env fusion inh	Rce1 inhib	PABP polyA inh	others
CCCN(CC1CC1)C(=O)COC(=O)c1ccc2c(c1)C(=O)N(c1ccc(OCC)cc1)C2=O	-5	x	4	7	0	5	i	-4
N#Cc1ccccc1NC(=O)CSc1ccc([N+](=O)[O-])cn1	-7	x	-3	-5	3	-2	i	13
Fc1cccc(Nc2nc(-c3ccncc3)nc3ccccc23)c1	30	-28	-8	-5	-18	16	i	-6
COc1ccccc1C(=O)NCC(=O)OCc1csc(-c2ccccc2)n1	-1	-1	4	6	-7	7	i	-9
O=C(/C=C/c1ccco1)Nc1nc(-c2ccccc2)cs1	18	-14	1	-2	53	x	i	-1	eIF4H FP inh retest=-5;PABP polyA inh retest=6
CCN(CC)C(=O)NC(c1ccc(C)c(F)c1)C(Cl)(Cl)Cl (centres undefined)	3	x	-8	-4	6	0	i	6
CC(=O)c1c(C)[nH]c(C(=O)Nc2ccccn2)c1C	-7	-12	0	-2	0	-31	i	-3
O=C(NCC1CCCO1)Nc1cc(Cl)cc(Cl)c1 (centres undefined)	-11	x	1	1	-2	9	i	-7
Cc1ccc(S(=O)(=O)N2CCOCC2)cc1C(=O)OCC(=O)NC1CCCCC1	x	-14	8	-5	x	-9	x	x
Cn1nc(C(=O)Nc2ccc3c(c2)OCO3)c2ccccc2c1=O	5	-4	1	2	-5	x	i	-6
COCCn1c(C)cc(C(=O)COc2nc3ccccc3nc2C)c1C	-3	-16	-7	-23	-3	50	i	-9
Brc1ccc(-c2ncc3ccccn23)cc1	-9	-7	-3	-1	-4	-11	i	19
CCN(CCCNC(=O)c1ccc2c(c1)NC(=O)CN2C)c1cccc(C)c1	2	2	0	-11	-2	-17	i	1
CC(C)CCOP(=O)(c1ccccc1)c1ccccc1	2	x	-4	0	-6	x	i	-4
Cc1cc(N/N=C(/CCC(=O)O)C(=O)O)nc2ccccc12	3	x	7	9	17	-2	i	-4
CC(=O)Nc1cc(-c2ccsc2)cn2c(-c3ccc(F)cc3)cnc12	x	-14	-1	3	x	-89	x	x
Cn1c(N)c(S(=O)(=O)NCc2ccc(F)cc2)c(=O)n(C)c1=O	0	-1	-3	7	-12	-21	i	-13
COCCCn1c(=O)c2ccccc2n(CC(=O)N2CCCc3ccccc32)c1=O	-12	-10	5	2	4	30	x	7
COc1ccc(NC(=O)C2Cc3c(-c4ccc(Cl)cc4)ccnc3O2)cn1 (centres undefined)	x	-9	1	-10	x	1	x	x
COc1cc(OC)cc(C(=O)NC(C)c2ccc(Br)cc2)c1 (centres undefined)	x	-11	-8	0	-6	-49	i	6
CCC(C)(C)c1ccc(OCCCC[n+]2cccc(C)c2C)c(C(C)(C)CC)c1	135*	-1	1	-30	-3	99*	+	11
COc1ccc(/C=N/Nc2ncnc3sc4c(c23)CCCC4)cc1OC	25	x	-14	-8	-9	-36	i	4
CN(Cc1ccncn1)C(=O)C1CCC(=O)N(Cc2cccc(C(F)(F)F)c2)C1 (centres undefined)	2	-10	-2	0	-16	x	i	-2
CON1C(=O)C(=O)N(OC)C(C)(C)C1(C)C	-7	x	-2	0	-15	-19	i	-3
CC(=O)NC(CC(=O)N(C)C1CCCCC1)c1ccccc1 (centres undefined)	-7	-2	2	3	4	3	i	3
